H5N1 antiviral: MDCK cell protection from H5N1 avian flu | cytopathic effect, luminescence, 72 h; hits give high values; no value below 0 was filed and about half of the inactive calls have no number; reference of the scale not given here | inhibition, % at 50 µM | 96,000 compounds, 0.07% hits | AID 740; in the data active = inhibition above about 25%
Numbers without * were called inactive; i = inactive. An excerpt; rates above refer to the full screens.

Structure	H5N1 antiviral
Cc1ccc(S(=O)(=O)N2CCCC(C(=O)N(Cc3cccs3)C3CC3)C2)cc1 (configuration not stated)	i
Cc1nn(CCCC(=O)Nc2sc3c(c2C#N)CCC3)c(C)c1[N+](=O)[O-]	i
O=C(O)c1cc(=O)cc(C(=O)O)[nH]1	0.2
O=C(CSc1ncnc2c1cnn2CCc1ccccc1)Nc1cccc(C(F)(F)F)c1	i
CC(=O)NS(=O)(=O)c1ccc(NC(=O)/C=C/c2ccccc2Cl)cc1	i
Nn1c(Cc2cccc3ccccc23)nnc1SCn1nnc2ccccc2c1=O	1.9
COc1ccc(Oc2ccc3c(C(F)(F)F)cc(C(F)(F)F)nc3n2)cc1	i
Cn1c(N)c(S(=O)(=O)c2ccc(Br)cc2)c2nc3ccccc3nc21	i
CCOC(=O)N1CCN(C(=O)CSc2nnc(Cc3ccccc3)o2)CC1	i
Cc1cccc(C)c1NC(=O)CSc1nnc([C@H](C)NC(=O)OC(C)(C)C)o1	0.5

Grouped by structure: the entries above containing a CF3 group
Structure	H5N1 antiviral
O=C(CSc1ncnc2c1cnn2CCc1ccccc1)Nc1cccc(C(F)(F)F)c1	i
COc1ccc(Oc2ccc3c(C(F)(F)F)cc(C(F)(F)F)nc3n2)cc1	i

New compounds follow.
Structure	H5N1 antiviral
Cn1c(=O)c2c(nc(SCc3cccnc3)n2Cc2ccc(F)cc2)n(C)c1=O	1.9
Brc1cccc(-c2n[nH]c(-c3ccccc3)n2)c1	i
COc1ccc(N2CCN(Cc3cc(=O)oc4ccc(C)cc34)CC2)cc1	0.2
C=CCN(C(=O)Nc1ccc2oc(C)nc2c1)c1ccccc1	0.4
COC(=O)CSC1=C(C#N)C(c2ccc(Cl)cc2)C(C(=O)OC)C(=O)N1 (configuration not stated)	0.2
O=C(NCc1ccco1)c1cccc(NC(=O)c2ccccc2)c1	i
O=c1cc(O)n(-c2ccc(Cl)cc2)c(=S)[nH]1	i
CC(=O)Nc1c(C(=O)c2ccccc2)oc2ccccc12	0.4
CN1CCc2c(c3c(n2C)CCN(C)[C@@H]3c2cccnc2)[C@H]1c1cccnc1	2.2
NC1=NC(=O)/C(=C\c2cccs2)S1	15.7
Clc1cc(Br)ccc1OCCOCCN1CCOCC1	i
COc1ccccc1N1CCN(C(=O)c2cc3sccc3n2C)CC1	i
CCOc1ccc(NC(=O)NCCCN2CCCC2)cc1	0.9
Cc1cccc(Nc2nc(-c3c(C)nc4ccccn34)cs2)c1	i
COc1ccc(Cl)cc1C(=O)NCC(c1ccco1)N1CCCC1 (configuration not stated)	0.8
C=CCn1cc(C(=O)NCCCOC)c(=O)c2cc(S(=O)(=O)N(CC)CC)ccc21	0.6
C=CCn1c(=S)[nH]c2ccc(Br)cc2c1=O	i
COC(=O)c1ccc(NC(=O)c2cn(-c3ccccc3)nc2-c2ccncc2)cc1	i
CC(C)Oc1ccc(NC(=O)CCC(=O)O)cc1	0.2
NC(=O)NC(=O)COC(=O)c1ccccc1Oc1ccccc1	0.1
CCCOc1ccc(/C=N/NC(=O)C2CCCN2S(=O)(=O)c2ccc(Cl)cc2)cc1 (configuration not stated)	1.4
C=CCn1c(O)c(C(C)=NCCCN2CCOCC2)c(=O)[nH]c1=O	0.4
O=C(CCC(=O)N1CCC2(CC1)OCCO2)Nc1nnc(C(F)(F)F)s1	i
COc1ccc(N(CC(=O)N2CCc3ccccc3C2)S(C)(=O)=O)cc1OC	0.4
O=C(OCCCN1C(=O)c2ccccc2C1=O)c1ccco1	i
CN1CCN(Cc2nc3c([nH]2)c(=O)[nH]c(=O)n3C)CC1	1.1
CC(=O)c1c(C)[nH]c(C(=O)CSc2nnc(-c3ccco3)n2Cc2ccccc2)c1C	i
COC(=O)C(C#N)c1nc2ccccc2nc1N1CCCC1 (configuration not stated)	1.1
CC(NC(=O)c1ccc(N(C)C)cc1)C(c1cccs1)N1CCN(C)CC1 (configuration not stated)	1.6
COc1cc(C#N)ccc1OCC(=O)c1ccc2c(c1)OCCO2	0.2
FC(F)(F)c1nnc2ccc(-n3ccnc3)nn12	i
CCCC(CCC)C(=O)NCCN1CCOCC1	1.6
O=C(NCc1ccccc1Cl)C1CCN(S(=O)(=O)N2CCCCCC2)CC1	i
CC(C)c1nnc(SCC(=O)NCCC2=CCCCC2)n1N	0.7
CC1(C)N=C(N)N=C(N)N1c1ccc(C(=O)O)cc1	i
CCOC(=O)c1ccccc1NC(=O)C(C)Oc1ccccc1 (configuration not stated)	0.1
COc1ccc(-c2cc(C(F)(F)F)nc(-n3cc(Cl)cn3)n2)cc1	i
CC(C)c1c(O)nc(SCc2ccccc2)[nH]c1=O	i
COc1ccc(S(=O)(=O)N2Cc3ccccc3CC2C(=O)Nc2ccc3c(c2)OCO3)cc1 (configuration not stated)	i
O=C(O)CCN=C1CCc2ccccc2N1	0.5

Filtered by structure, the entries above containing two or more sulfur atoms.
Structure	H5N1 antiviral
Cc1ccc(S(=O)(=O)N2CCCC(C(=O)N(Cc3cccs3)C3CC3)C2)cc1 (configuration not stated)	i
NC1=NC(=O)/C(=C\c2cccs2)S1	15.7

Next section
Structure	H5N1 antiviral
CCS(=O)(=O)NCCc1csc(C)n1	0.7
Cc1cc(NC(=O)COC(=O)c2c(C)nn(-c3ccccc3)c2C)no1	1.2
CCCc1cc(C(=O)N/N=C/c2ccc(C)o2)c2ccccc2n1	0.9
O=C(N/N=C1/CCCc2ccccc21)C(c1ccccc1)c1ccccc1	i
CCC(C)NC(=O)Nc1ccccc1C (configuration not stated)	0.3
O=c1cc2[nH]c3ccccc3c(=O)n2nc1-c1ccccc1	0.2
N=c1c(S(=O)(=O)c2ccc(Cl)cc2)cc2c(=O)n3ccccc3nc2n1CCN1CCOCC1	0.8
COc1cccc(-c2nnc3n2N=C(c2cccc(Br)c2)CS3)c1	0.6
COc1ccc(C(=O)NCC(=O)NC2=NCCS2)cc1	0.8
COc1ccc(Cl)cc1S(=O)(=O)N1CCN(CC(=O)C(C)(C)C)CC1	i
CCN(CC)CCNC(=O)c1cn(-c2ccccc2)nc1-c1cccs1	i
CCOC(=O)c1ccc2ncc(C(=O)OCC)c(NCCCN3CCOCC3)c2c1	0.6
CSc1nc(N)c2c3c(sc2n1)COC(C(C)C)C3 (configuration not stated)	i
CCCN1CCN(CCCNC(=O)Cn2nc(-c3ccccc3)ccc2=O)CC1	i
COc1ccc(OCCSc2nc3ccccc3c(=O)[nH]2)cc1	i
CCN(CC)c1cc2nonc2c2nonc12	1.9
CC(=C1C(=O)c2ccccc2C1=O)N1CCN(Cc2ccccc2)CC1	0.5
Cc1nc(NNC(=O)c2ccc(Cl)cc2Cl)cc(-c2ccccc2)n1	i
Cc1ccc(C(C)NC(=O)C2CCCO2)cc1C (configuration not stated)	0.1
COc1ccc2c(c1)SCCC2=O	1.1

Next section.
smiles | H5N1 antiviral
CCC(C)(NC(=O)CNC(C)=O)C(=O)NC1CCCCC1 (configuration not stated) | 0.3
CCC(C)(C)NC(=O)c1ccc2c(c1)S(=O)(=O)c1ccccc1C2=O | i
CC(C)OCCCNC(=O)c1c(N)n(/N=C/c2ccccn2)c2nc3ccccc3nc12 | 4.5
CCOC(=O)c1ccc(N/C=C/C(=O)c2ccc(OC)cc2)cc1 | i
COc1ccc(CN2CC(C(=O)NCCCN3CCCCCC3)CC2=O)cc1 (configuration not stated) | 1.1
CCn1c(N)c(C(N)=O)sc1=S | i
COc1ccc(N2CCN(/C(=N\S(=O)(=O)c3ccc(C)cc3)Nc3nc(C)cc(C)n3)CC2)cc1 | 2.0
O=C(Nc1ccc(Cl)cc1)N1CCCN(Cc2ccccc2F)C1 | i
CCOC(=O)Cn1c(=O)cnc2ccccc21 | 1.9
COC(=O)c1ccc(NC(=S)NC(=O)c2cc(-c3ccccc3)nc3ccccc23)cc1 | i
O=C1c2ccccc2C(=O)N1CCCc1nc(-c2ccc(Cl)cc2)no1 | 0.9
Cc1ccc2nc(C)c(C)nc2c1N | i
O=Cc1cc2ccccc2nc1SCc1ccc(Cl)c(Cl)c1 | 10.4
CC1(C)C(C(=O)NCc2ccco2)C1(C)C | i
O=C(CNc1ccc(C(F)(F)F)cc1[N+](=O)[O-])OCC(=O)c1ccccc1 | i
Cc1ccc2nc(-c3ccccc3Cl)cc(C(=O)Nc3cc(C)on3)c2c1 | i
O=C(/C=C\NCC(=O)c1ccccc1)c1ccccc1 | 0.3
CCOC(=O)C1=C(CSc2nc(-c3ccccc3)ccc2C#N)OC(N)=C(C#N)C1c1ccc(OC)cc1 (configuration not stated) | i
CCN(CCCNC(=O)C1CCN(S(=O)(=O)c2cccc3nonc23)CC1)Cc1ccccc1 | i
CCN1CCN(Cc2ccc(OC)c(OCc3ccccc3)c2)CC1 | i
COc1ccc(NC(=O)N2CCC(O)(c3cccnc3)CC2)c(OC)c1 | 0.7
O=S(=O)(c1ccc(Cl)cc1)n1ccc2cccnc21 | 0.4
Cc1ccc(C(=O)N2CCN(C)CC2)cc1S(=O)(=O)N1CCCCC1 | i
O=C(Nc1ccncc1)c1cccs1 | 6.6
CCCC1=[N+](CC)CCn2c(C)ccc21 | 0.7
Cc1nn(-c2ccccc2)c2c1C(c1cccs1)C(C#N)=C(N)O2 (configuration not stated) | i
Cc1ccc(C(=O)NN2CCOCC2)cc1 | i
COc1ccc(NS(=O)(=O)c2ccc3c(c2)n(C)c(=O)n3C)cc1 | i
O=C(O)C(Oc1ccc2c3c(c(=O)oc2c1)CCC3)c1ccccc1 (configuration not stated) | 2.0
C=CCN=C(NC#N)SCC(=O)NC(C)(C)C | i

Some of the entries above in a different format:
> CCN(CCCNC(=O)C1CCN(S(=O)(=O)c2cccc3nonc23)CC1)Cc1ccccc1
- H5N1 antiviral: i
> CCOC(=O)Cn1c(=O)cnc2ccccc21
- H5N1 antiviral: 1.9
> O=S(=O)(c1ccc(Cl)cc1)n1ccc2cccnc21
- H5N1 antiviral: 0.4
> CCC(C)(NC(=O)CNC(C)=O)C(=O)NC1CCCCC1 (configuration not stated)
- H5N1 antiviral: 0.3

The list goes on.
smiles | H5N1 antiviral
O=C(N/C(=C\c1ccc(Br)cc1)c1nc2ccccc2[nH]1)c1ccco1 | 1.8
O=C(C(Cc1ccccc1)n1cccc1)N1CCc2ccccc21 (configuration not stated) | i
N#CC1=C(N)N2C(=C(C#N)C1c1ccccc1)Sc1ccccc12 (configuration not stated) | 0.7
COc1ccc(NC(=O)CSc2ncn[nH]2)c([N+](=O)[O-])c1 | 0.9
CC(=O)Nc1cc(NC(C)=O)cc(C(=O)NC(C)(C)C)c1 | i
Cc1ccc(CNc2ccc3c(c2)OCO3)cc1 | i
CCN1CCN(C(=O)CN(C)S(=O)(=O)c2ccc(Cl)cc2)CC1 | 0.1
Cc1ccc(Cn2ccc(-c3cnc(-c4ccccc4)s3)n2)cc1 | i
COc1ccc(C2/C(=C(/O)c3ccc(Cl)cc3)C(=O)C(=O)N2CCN2CCOCC2)c(OC)c1 (configuration not stated) | 1.6
COc1cc2c(cc1OC)-c1nncn1C(C)(C)C2 | i
Cc1cccc(OCC(=O)NCC(=O)n2nc(C)cc2C)c1 | i
Cc1ccc(C(=O)N/C(=C\c2cccs2)C(=O)NCCc2c[nH]c3ccccc23)cc1C | i
C/C(CCC12CC3CC(CC(C3)C1)C2)=N\NC(N)=S | 1.0
CC(C)(C)c1cc(C(=O)NCc2cccnc2)ccn1 | i
O=C(Nc1cccc(F)c1)c1ccc(S(=O)(=O)N2CCOCC2)cc1 | 0.2
COc1ccccc1NC(=S)N1CCC(NC(=O)NC23CC4CC(CC(C4)C2)C3)CC1 | 0.5
CCOC(=O)c1cccc(C(=O)Oc2ccccc2)n1 | 0.7
CCCCCCSc1cc(C)nc2ncnn12 | i
CS(=O)(=O)N(Cc1ccc(C(=O)Nc2ccccc2Sc2ccccc2)cc1)c1ccccc1 | i
Cc1nnc(NCCO)c2ccccc12 | 0.8
O=S(=O)(c1cccc(-c2csc(-c3cccnc3)n2)c1)N1CCCCC1 | 0.2
CCn1nnc(-c2ccccc2NC(=O)c2cc(OC)c(OC)c(OC)c2)n1 | 0.9
COc1ccc(OC)c(C2C(C(C)=O)=C(O)C(=O)N2c2ccc(F)cc2)c1 (configuration not stated) | i
O=C(COC(=O)c1cnccn1)c1ccc(Br)cc1 | 1.6
O=C1Nc2ccccc2/C1=C\c1cccn1-c1ccc(OC(F)(F)F)cc1 | i
COc1ccc2c(c1)-c1c(ssc1=S)C(C)(C)N2C(=O)CSC1=NCCS1 | 2.1
COc1ccc(NC(=O)O/N=C2/CCCc3ccc(OC)cc32)cc1 | i
COC(=O)NC1CSCC1OC(=O)c1ccc(Br)cc1 (configuration not stated) | 0.3
CC(O)(C#CCN1CCCC1)c1ccccc1 (configuration not stated) | i
COC(=O)C1=C(C(=O)c2ccccc2)C(c2cccs2)n2nnnc2N1 (configuration not stated) | 0.2
O=C(Nc1ccc2c(c1)OCCO2)c1ccc(Cl)c(S(=O)(=O)N2CCOCC2)c1 | 0.9
O=P(C(c1ccc2c(c1)OCO2)N1CCOCC1)(N1CCOCC1)N1CCOCC1 (configuration not stated) | 0.1
CCN(CC)C(=O)CCc1nc2sc3c(c2c(=O)[nH]1)CCCC3 | 0.5
O=C(Nc1cccc(Cl)c1)N1CCN(C/C=C/c2ccccc2)CC1 | i
COc1ccc(C=C(c2ccc(OC)cc2)c2ccc(OC)cc2)cc1 | i
CCOC(=O)c1sc(/N=C/Nc2nc(C)c(C(=O)OCC)s2)nc1C | 0.4
Nc1nc(CN2CCc3ccccc3C2)nc(Nc2ccccc2)n1 | i
COc1ccc2nc(COC(=O)c3ccco3)c(C(C)=O)[n+]([O-])c2c1 | i
C=CCNC(=O)c1scc2c1CCCC2 | i
Cc1cc(C(=O)C(=O)N(C)C)c(C)n1-c1ccc([N+](=O)[O-])cc1 | 0.1

Source: PubChem BioAssay
